D2 potentiator – human D2 receptor positive allosteric modulation. DiscoveRx D2 beta-arrestin cells, luminescence, 90 min; 100% = 57 uM dopamine signal. 360,000 compounds, 0.23% hits. AID 624464. potentiation, % (test concentration not listed). P14416; active = potentiation of 50% or more; inconclusive = 30% to 50%; inactive = 30% or less;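 also: compound concentration not given in the record; tested on top of an EC20 dose of dopamine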
Target sequence (P14416 whole entry, looked up): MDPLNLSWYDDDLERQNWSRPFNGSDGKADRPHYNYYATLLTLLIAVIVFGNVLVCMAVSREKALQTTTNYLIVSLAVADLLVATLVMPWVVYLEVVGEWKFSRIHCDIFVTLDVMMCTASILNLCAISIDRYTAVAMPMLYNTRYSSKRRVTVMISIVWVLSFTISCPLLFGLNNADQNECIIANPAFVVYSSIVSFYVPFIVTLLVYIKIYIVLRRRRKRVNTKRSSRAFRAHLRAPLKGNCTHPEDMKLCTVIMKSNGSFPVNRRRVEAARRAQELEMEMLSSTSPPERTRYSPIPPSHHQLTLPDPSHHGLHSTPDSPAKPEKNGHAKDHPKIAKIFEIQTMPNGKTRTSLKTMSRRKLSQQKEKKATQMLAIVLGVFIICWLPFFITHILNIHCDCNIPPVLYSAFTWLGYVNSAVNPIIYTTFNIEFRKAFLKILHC
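PathHunter D2 cells, attached overnight at 37 deg C, received compound in DMSO plus dopamine at EC20 (50 nM final) for 90 min at 37 deg C. Beta-arrestin recruitment was read as luminescence after 1 h with detection reagent at ambient temperature.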
ClpP mod – qHTS Assay for Activators of ClpP; purified B. subtilis ClpP, FRET peptide cleavage, 20 min; 340,000 compounds, 1.9% hits; Potency, µM (titrated, usually from 57.5 µM), for inactives: top-dose activity change, negative = active; active = well fitted falling curve with a large enough effect; inconclusive = small, poorly fitted or top-dose-only effect; inactive = no such curve, though single readings can be large or run the other way; also: potency is read from the fitted curve at half-maximal effect; the source files actives as falling curves though it sought activators and does not explain the sign; nearly all actives have a fitted effect of over 65% in size; many hits overshoot -100%
Target sequence (P80244 whole entry, looked up): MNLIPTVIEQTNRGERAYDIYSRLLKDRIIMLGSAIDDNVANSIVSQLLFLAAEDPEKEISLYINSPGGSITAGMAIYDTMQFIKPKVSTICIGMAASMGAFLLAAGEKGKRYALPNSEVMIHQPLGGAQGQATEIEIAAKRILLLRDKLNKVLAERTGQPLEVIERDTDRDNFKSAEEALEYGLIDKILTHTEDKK
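ClpP 10 microg/mL final, pH 8 Tris/KCl buffer with BSA, glycerol, Tween-20; compound pinned in; FRET-FV substrate; RT 20 min; Ex320/Em430; ΔFRET vs ADEP 5.8 microM, DMSO, no enzyme.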
An asterisk follows results filed as active; ? = inconclusive. These rows are one share of the data. The share of hits here may be higher or lower than overall.

Sequence of screens – ClpP mod, D2 potentiator
> O=[N+]([O-])c1ccccc1S(=O)NCc1c(Cl)cccc1Cl (centres undefined)
  -0.6%, -8.0
> CCNC(=O)C1(C)CCCN(C(=O)c2oc3ccccc3c2C)C1 (centres undefined)
  0.9%, -1.4
> O=C(NCc1ccccc1Cl)c1ccc2nc([C@@H]3O[C@H](CO)[C@@H](O)[C@H]3O)[nH]c2c1
  -1.1%, 1.1
> Cc1ccc(-c2cnc(C(O)c3cccc(C)c3C)[nH]2)cc1 (centres undefined)
  -0.2%, -17.0
> Cc1noc(C)c1-c1ccc(C(=O)NCc2ccc(Cl)cc2)c2occc12
  -29.6%, 3.0
> CN(C)C(=O)c1cccc(-c2cnc3sc(NCc4ccc5c(c4)OCO5)nn23)c1
  -0.2%, -7.6
> Cc1c(C(=O)NCc2cccc(C(F)(F)F)c2)sc(=O)n1Cc1cccc(F)c1
  -1.0%, -1.1
> CC(CNC(=O)CC[C@H]1O[C@@H](n2cnc3c(NC(=O)c4ccccc4)ncnc32)[C@H](O)[C@@H]1O)c1ccccc1 (some centres undefined)
  -1.8%, -0.7
> O=C(Nc1ccc2c(c1)OCO2)c1cc(C2CCCN(C(=O)CCCc3ccccc3)C2)on1 (centres undefined)
  -4.1%, -6.6
> Cn1c(NCCN2CCCC2)nc2cc(-c3ccccc3)sc2c1=O
  -17.7%, 2.6
> C[C@H]1CN([C@@H](C)CO)C(=O)CCCn2cc(nn2)CO[C@@H]1CN(C)C(=O)NC1CCCCC1
  -1.1%, -3.0
> Cc1ccc2nc(-c3ccc(C#N)cc3)c(Cc3ccccn3)n2c1
  4.5%, -6.6
> O=C(NCc1ccccc1)c1cc(C2CCCCN2S(=O)(=O)c2ccccc2)on1 (centres undefined)
  0.3%, 0.0
> CCCC(=O)N1CCCC1(C)C(=O)Nc1ccc(-n2cncn2)cc1 (centres undefined)
  0.8%, -1.9
> COc1cccc(C(O)c2nc(-c3ccccc3)cs2)c1 (centres undefined)
  1.2%, 1.9
> COC(=O)c1ccccc1COc1cccn2c(N(C)Cc3cccs3)c(C)nc12
  -2.0%, -11.2
> CCNC(=O)C1(C)CCN(C(=O)c2ccccc2C(F)(F)F)C1 (centres undefined)
  0.3%, -3.2
> COc1cc(F)ccc1-c1cc(C(=O)NCc2cc(C(F)(F)F)cc(C(F)(F)F)c2)[nH]n1
  -5.2%, -8.6
> COCc1cccc(-c2csc(C(O)c3ccc(F)c(F)c3)n2)c1 (centres undefined)
  -2.9%, 3.0
> CCOC(=O)C1CCCN(C(=O)c2cncc(Br)c2)CC1 (centres undefined)
  1.0%, -4.1
> COc1cccc(NC(=O)C2(C)CCN2C(=O)CCC2CCCC2)c1 (centres undefined)
  -0.9%, -1.0
> CCOC(=O)C1(C)CCCN(C(=O)c2cc(C)oc2C)C1 (centres undefined)
  1.1%, 0.3
> COc1ccc(C(O)c2nc(-c3ccc(OC)nc3)cs2)cc1 (centres undefined)
  0.6%, -12.3
> CCc1nc2ccc(C(=O)Nc3ccc(C(N)=O)cc3)cn2c1N(CCC(C)C)CCN(C)C
  1.0%, -5.0
> O=c1[nH]c(=S)[nH]c2c1C(c1ccc(Cl)cc1)OC(C1CCCCC1)C2 (centres undefined)
  0.4%, -11.1
> COc1ccc(-c2nc3c(C)cc(Br)cn3c2Cc2ccsc2)cc1OC
  -6.4%, -2.7
> Cc1c(C(=O)NCc2cccc([N+](=O)[O-])c2)sc(=O)n1Cc1ccccc1F
  1.0%, -7.1
> CCc1nc2ccc(C(=O)Nc3ccc(NC(C)=O)cc3)cn2c1N(C)CCC(C)C
  -0.9%, -1.8
> COc1ccc(NC(=O)c2cc(C3CCCCN3C(=O)c3ccc(NC(C)=O)cc3)on2)c(C)c1 (centres undefined)
  -1.8%, -5.3
> COc1ccc(-c2cnc3c(NC=O)cc(-c4ccoc4)cn23)cc1OC
  -13.8%, 1.1

A second format for 5 compounds above.
structure | ClpP mod | D2 potentiator
Cc1ccc2nc(-c3ccc(C#N)cc3)c(Cc3ccccn3)n2c1 | 4.5% | -6.6
O=C(NCc1ccccc1)c1cc(C2CCCCN2S(=O)(=O)c2ccccc2)on1 (centres undefined) | 0.3% | 0.0
CCCC(=O)N1CCCC1(C)C(=O)Nc1ccc(-n2cncn2)cc1 (centres undefined) | 0.8% | -1.9
COc1cccc(C(O)c2nc(-c3ccccc3)cs2)c1 (centres undefined) | 1.2% | 1.9
COC(=O)c1ccccc1COc1cccn2c(N(C)Cc3cccs3)c(C)nc12 | -2.0% | -11.2

Other entries.
Sequence of screens – ClpP mod, D2 potentiator
> CCCCC(=O)N(C)c1c(C)nc2ccc(C(=O)Nc3cccc(OC)c3)cn12
  -5.3%, -14.6
> Cc1ccc(Nc2nc(N)nc(N)c2N=O)cc1C
  -3.4%, -3.2
> O=C(NCCO)c1ccc(-c2cnc3cccnn23)cc1
  4.6%, -8.3
> CCc1nc2ccc(C(=O)N3CCN(C(=O)c4ccco4)CC3)cn2c1N(C)C(=O)C1CCCCC1
  -3.5%, -12.6
> C[C@H](CO)N1C[C@H](C)[C@@H](CN(C)C(=O)Nc2cccc3ccccc23)OCCCC[C@H](C)Oc2ccc(NS(=O)(=O)c3cn(C)cn3)cc2C1=O
  3.9%, -6.4
> CC1(C(=O)NS(=O)(=O)Cc2cccc(Cl)c2)CCN1C(=O)Cc1cccs1 (centres undefined)
  3.4%, -2.0
> Fc1cccc(Cc2c(C3CCCCC3)nc3ccc(Br)cn23)c1
  -3.8%, -4.9
> COc1ccc(Cc2c(-c3ccc(F)cc3)nc3c4ccccc4ccn23)c(C)c1
  ?, -11.7
> Cc1cc(N2CCN(C(=O)c3[nH]c(C(F)(F)F)nc3-c3ccccc3)CC2)c2ccccc2n1
  0.2%, -8.8
> COc1cc(-c2coc3c(C(=O)NCc4ccc(OC)c(OC)c4)cccc23)ccc1O
  2.2%, -7.4
> CCC(=O)N1CCCC1(C)C(=O)Nc1cccc(Oc2ccccc2)c1 (centres undefined)
  -0.6%, 5.3
> CCN(CC)C(=O)c1cccc(-c2csc(C(C)(O)c3cccc(F)c3)n2)c1 (centres undefined)
  0.6%, -4.2
> COc1ccc(Cl)cc1Cn1c(C)c(C(=O)NCc2cccc(Cl)c2)sc1=O
  -4.5%, -2.8
> CC(C)(C)c1ccc(CC(=O)N2CCC2(C)C(=O)NS(=O)(=O)c2cccc(Cl)c2)cc1 (centres undefined)
  0.2%, -4.7
> Cc1cc(NC(=O)CS(=O)(=O)c2cn(Cc3cccc(Cl)c3)c3ccccc23)no1
  0.2%, -0.9
> O=c1[nH]c(=O)n(C2OC(CO)C(O)C2O)c2c1CCCC2 (centres undefined)
  0.1%, -2.8
> Cc1ccc(C)c(CC(=O)N2CCCC(c3cc(C(=O)NCc4ccccc4)no3)C2)c1 (centres undefined)
  -2.5%, 0.8
> O=C(CC[C@H]1O[C@@H](n2ccc(=O)[nH]c2=O)[C@H](O)[C@@H]1O)NCCCc1ccccc1
  1.3%, 1.4
> CC1(C(=O)NS(=O)(=O)c2ccccc2Cl)CCN1C(=O)c1cccc(F)c1 (centres undefined)
  -2.3%, -7.4
> COCCNc1nc(NCCCN(C)C)c2sccc2n1
  5.1%, 1.9
> COc1ccc(NC(=O)c2cc(-c3cc(F)ccc3OC(C)C)n[nH]2)c(OC)c1
  -15.5%, 5.5
> CC(=O)C1=CCC(c2ccc(Cl)cc2)N(S(=O)(=O)c2ccccc2)C1 (centres undefined)
  -1.9%, -9.2
> Cn1c(=O)n(C)c2cc(CNC(=O)[C@H]3O[C@@H](n4cnc5c(N)ncnc54)[C@H](O)[C@@H]3O)ccc21
  -0.3%, -3.2
> CCCCN(C=O)c1c(CC)nc2c(OCCOc3ccc(F)cc3)cccn12
  -5.8%, -1.3
> CC(C)N1CCCC(C)(C(=O)Nc2nccc3ccccc23)C1 (centres undefined)
  5.4%, -6.2
> O=C(NCc1cccnc1)c1[nH]c(C(F)(F)F)nc1-c1ccccc1
  0.5%, -2.1
> O=C(NCCCN1CCCC1)c1[nH]c(C(F)(F)F)nc1-c1ccccc1
  -4.2%, -0.3
> CC1(C(=O)O)CCCN1C(=O)c1ccccc1OC(F)(F)F (centres undefined)
  1.6%, -12.5
> COc1cc(NC(=O)c2cc(-c3ccc(F)cc3OC(C)C)n[nH]2)cc(OC)c1OC
  -3.1%, -20.3
> CCc1nc2c(OCC3COc4ccccc4O3)cccn2c1N(C)C(=O)c1cccs1 (centres undefined)
  0.9%, -6.2
> O=S1(=O)C[C@@H](N2CCN(c3ccccc3)CC2)[C@H](COCc2ccccc2)N1
  -0.1%, -3.2
> O=C(/C=C/[C@H]1O[C@@H](n2ccc(=O)[nH]c2=O)[C@H](O)[C@@H]1O)NCC1CCCO1 (some centres undefined)
  -1.8%, -4.1
> CC1(C(=O)Nc2ccc3nc[nH]c3c2)CCN1C(=O)Cc1ccc(-c2ccccc2)cc1 (centres undefined)
  0.3%, -7.7
> Cn1cnc(S(=O)(=O)N2CCCCC2c2cc(C(=O)Nc3ccccc3Cl)no2)c1 (centres undefined)
  0.1%, -4.7
> CC(=O)Nc1cc(-c2cccc(N)c2)cn2c(-c3ccccc3)cnc12
  -12.0%, 3.3
> COc1cc(OC)nc(Nc2nc(CN)cs2)n1
  -1.7%, -2.1
> CCc1nc2ccc(C(=O)Nc3ccc(OC)c(OC)c3)cn2c1N(C)Cc1nccs1
  0.1%, -4.7
> COc1ccccc1CNc1nc2cc(-c3ccccc3C)sc2c(=O)n1C
  ?, -4.1
> Cc1nc(C(F)(F)F)ccc1C(=O)N1CCC1(C)C(=O)NS(=O)(=O)c1ccc(C#N)cc1 (centres undefined)
  -0.2%, -0.9
> Clc1ccccc1-c1ccc2nccn2c1
  -23.8%, -10.2
> NC(=O)c1cccc(Nc2nc(C(N)C3CCCCC3)cs2)n1 (centres undefined)
  -2.3%, -13.9
> CC(C)c1ccc(C(=O)N2CCCC(c3cc(C(=O)Nc4ccccc4Cl)no3)C2)cc1 (centres undefined)
  -7.0%, -8.3
> O=C(NC(c1ccc(Cl)cc1)c1cnccn1)C1CCN(Cc2cccc(C(F)(F)F)c2)CC1 (centres undefined)
  1.2%, -23.7
> CN(C)c1ccc(-c2ccnc3c2CC(C)(C(=O)NCc2ccncc2)O3)cc1 (centres undefined)
  4.8%, -9.8
> COc1ccc(Cl)cc1CC1(C)C(=O)Nc2ccc(-c3ccccc3OC)cc21 (centres undefined)
  -8.8%, 1.8
> Cn1c(=O)c2cc(NC(=O)Nc3cccnc3)ccc2n1Cc1ccc(Cl)cc1
  5.0%, -3.0
> CCNC(=O)C1(C)CCCN(Cc2ccc3ccccc3c2Br)C1 (centres undefined)
  0.2%, -9.0
> COCc1cccc(-c2csc(C(O)c3ccc(OC)cc3)n2)c1 (centres undefined)
  1.2%, -5.7
> CC1(C(=O)NC2CCCC2)CCC(=O)N1CCOc1ccccc1 (centres undefined)
  -2.3%, -7.2
> CCCS(=O)(=O)NC(=O)C1(C)CCN(C(=O)c2ccc(OC)c(F)c2)C1 (centres undefined)
  0.1%, -6.1
> CN1OC[C@@H]2CN(C(=S)NCCc3ccccc3)[C@H](c3ccc(-n4ccnc4)cc3)C[C@@H]21
  2.2%, -7.4
> CCOC(=O)C1=CCN(S(=O)(=O)c2ccc(C)cc2)C1c1cccc(F)c1 (centres undefined)
  -2.1%, -6.3
> Cc1c(C(=O)NCc2ccc(C(F)(F)F)cc2)sc(=O)n1Cc1ccc(S(=O)(=O)N(C)C)cc1
  -2.3%, 4.1
> COc1ccc(-c2cc3nc(NCc4ccc(NC(C)=O)cc4)n(C)c(=O)c3s2)cc1OC
  5.2%, 0.4
> CCOC1=C2CN(S(=O)(=O)c3ccc(Cl)cc3)[C@H](c3ccccc3)C[C@@H]2N(S(=O)(=O)c2ccc(C)cc2)[C@H](c2ccccc2)C1
  -1.2%, -2.4
> CNc1ncnc2c1ncn2[C@H]1CN(Cc2ccccc2)C[C@@H](CO)O1
  1.9%, -1.4
> CC(C)c1ccc(Nc2ncc3c(n2)CCN(C(=O)NC2CCCCC2)C3)cc1
  -1.1%, -4.1
> COc1cccc(Cn2c3ccc(NC(=O)CCc4ccc(F)cc4)cc3c(=O)n2C)c1
  4.4%, -2.6
> CCC(CC)C(=O)N(C)c1c(C)nc2c(OCc3ccc(C#N)cc3)cccn12
  -0.9%, -7.7
> O=C(Nc1cccc2ccccc12)c1csc([C@@H]2C[C@H](O)[C@@H](CO)O2)n1
  0.9%, -0.9

New compounds follow
Sequence of screens – ClpP mod, D2 potentiator
> CCCc1ccc(C(O)c2ncc(-c3ccccc3F)[nH]2)cc1 (centres undefined)
  -0.2%, -2.5
> CCc1ccccc1Oc1nc2cc(-c3cccc(OC)c3)sc2c(=O)n1C
  12.6µM*, -1.9
> COc1ccc(S(=O)(=O)N2CCCC(c3cc(C(=O)NCc4cccnc4)no3)C2)cc1 (centres undefined)
  -0.2%, -5.3
> CC(C)N1CCCC(C)(C(=O)Nc2ccc3c(c2)OCO3)C1 (centres undefined)
  2.2%, -1.8
> CC1(C(=O)NS(=O)(=O)c2ccc(C#N)cc2)CCN1C(=O)Cc1cc(F)ccc1F (centres undefined)
  -0.4%, -1.3
> C#CCN(CC(=O)OCC)S(=O)(=O)CCNC1CC1
  -0.6%, -2.0
> COc1ccc(NC(=O)C2Cc3c(-c4ccccc4Oc4ccccc4)ccnc3O2)cc1OC (centres undefined)
  -0.8%, -12.2

High-throughput results from PubChem.
